2A firefly: Primary qHTS Assay for Foot and Mouth Disease Virus Antivirals against NCGC Sytravon and CBC Compound Libraries: Firefly Luciferase Signal. HEK cells with a luciferase reporter of 2A StopGo recoding. Potency, µM (highest dose often 57.5 µM), without a hit: at the highest dose signal change, negative = less light. 120,000 compounds, 0.23% hits; active = well fitted falling curve with a large enough effect; inconclusive = small, poorly fitted or top-dose-only effect; inactive = no such curve, though single readings can be large or run the other way; note: nearly all actives have a fitted effect of over 60% in size; overnight with compound
2A Renilla: Primary qHTS Assay for Foot and Mouth Disease Virus Antivirals against NCGC Sytravon and CBC Compound Libraries: Renilla Luciferase Signal; Potency, µM (top dose mostly 57.5 µM), for inactives: top-dose signal change, negative = less light; AID 1745857, 2022; 120,000 compounds, 0.32% hits; HEK cells with a luciferase reporter of 2A StopGo recoding; active means well fitted falling curve with a large enough effect; inconclusive means small, poorly fitted or top-dose-only effect; inactive means no such curve, though single readings can be large or run the other way; note: nearly all actives have a fitted effect of over 55% in size; overnight with compound
An asterisk follows results filed as active; ? = inconclusive; & = joins results of further samples; [ ] = dose if it differs, or a comment. % is set by controls: 0 for no effect and ±100 for the full control effect; potency is the fitted concentration of half-maximal effect.

SMILES | 2A firefly | 2A Renilla
CCOc1ccc(-c2csc(/C(C#N)=C/c3ccc(Br)cc3)n2)cc1 | -1% | 1%
COc1ccc(C(=O)CSc2nnc3c(=O)n(-c4cc(C)cc(C)c4)ccn23)cc1OC | 9% | 11%
O=C(CCn1nc(-c2ccc(Cl)cc2)c2ccccc2c1=O)NC1CCCCC1 | 25% | 38%[activator]
COCCn1c(N(C)C)nc2c1c(=O)[nH]c(=O)n2C | 15% | 1%
Cn1c(=NC(=O)c2ccc3c(c2)OCCO3)sc2cc(S(C)(=O)=O)ccc21 | -9% | -6%
O=C(COc1ccc(Cl)cc1Cl)NCCc1csc(-c2ccncc2)n1 | ? | ?
COc1ccc(CNC(=O)C(=O)NCC(c2cccnc2)N2CCN(c3ccccc3)CC2)cc1 (stereo unspecified) | ? | ?
Cc1c(NC(=O)c2cc(-c3ccccc3O)on2)c(=O)n(-c2ccccc2)n1C | 10% | 9%
Cc1ccc2nc(-c3ccc(NC(=O)[C@@H]4CCCN4C(=O)c4cccs4)cc3)sc2c1 | 0% | 1%
Cc1cccc(NC(=S)NNC(=O)c2ccccc2)c1 | 269%[activator] | 0%
COc1cc(NC(=O)CCS(=O)(=O)c2nc(-c3ccc4c(c3)OCO4)cc(C(F)(F)F)n2)cc(OC)c1OC | 21% | 125%[activator]
CCc1c(C)sc2c1CCN(C(=O)Nc1ccc(F)c(Cl)c1)C2c1ccc(F)cc1 (stereo unspecified) | 35µM* | ?
COc1cc(OC)c(/C=C(/C#N)c2cccc(C(F)(F)F)c2)c(OC)c1 | 24% | 26%
COc1ccc2cc(S(=O)(=O)N3CCN(C)CC3)ccc2c1 | -13% | -8%
Cc1ccc(CNCc2c(C(=O)O)n(Cc3ccc(C)cc3)c3cc(C)ccc23)cc1 | ? | 13%
NC(N)=N/N=C1\CCCCC1c1nccc2ccccc12 (stereo unspecified) | 24% | 8%
CCC(=O)Nc1cccc(-c2nc3cc(Cl)cc(Cl)c3o2)c1 | 8% | 6%
CONC(=O)COc1ccc(C(C)C)c(C)c1 | 15% | 1%
CCC(C)NC(=O)c1sc2nc(C)c(C(=O)Nc3ccc(C)cc3C)c(-c3ccc(Br)cc3)c2c1N (stereo unspecified) | -13% | -5%
COCCNC(=O)c1cc(-c2ccco2)nc2ccccc12 | 3% | -3%
COc1ccc(C(=O)NC(c2ccccc2Cl)c2cc(Cl)c3cccnc3c2O)cc1 (stereo unspecified) | -27% | -1%
Cc1c(C(=O)NCc2ccccc2Cl)sc2nc3n(c(=O)c12)CCCC3 | 147%[activator] | 112%[activator]
Cc1cccc(NC(=O)CN(C)C(=O)c2ccc3c(c2)nnn3C)c1 | 5% | 2%
O=C(Nc1ccc2c(c1)OCO2)NC1(C(F)(F)F)Oc2ccccc2O1 | 232%[activator] | 27%
Cc1cc(C(=O)N(Cc2ccccn2)C2CC2)sc1C | 20% | 15%

Reprinted from the listing (3 entries):
SMILES | 2A firefly | 2A Renilla
Cc1cccc(NC(=O)CN(C)C(=O)c2ccc3c(c2)nnn3C)c1 | 5% | 2%
O=C(Nc1ccc2c(c1)OCO2)NC1(C(F)(F)F)Oc2ccccc2O1 | 232%[activator] | 27%
Cc1cc(C(=O)N(Cc2ccccn2)C2CC2)sc1C | 20% | 15%

5 compounds drawn at random from the list so far:
SMILES | 2A firefly | 2A Renilla
COc1ccc2cc(S(=O)(=O)N3CCN(C)CC3)ccc2c1 | -13% | -8%
O=C(CCn1nc(-c2ccc(Cl)cc2)c2ccccc2c1=O)NC1CCCCC1 | 25% | 38%[activator]
CONC(=O)COc1ccc(C(C)C)c(C)c1 | 15% | 1%
CCC(C)NC(=O)c1sc2nc(C)c(C(=O)Nc3ccc(C)cc3C)c(-c3ccc(Br)cc3)c2c1N (stereo unspecified) | -13% | -5%
COCCn1c(N(C)C)nc2c1c(=O)[nH]c(=O)n2C | 15% | 1%

(further entries)
SMILES | 2A firefly | 2A Renilla
CCn1cnc2c1c(=O)n(CC(=O)Nc1ccccc1OC(F)F)c(=O)n2Cc1ccccc1 | 8% | 7%
COc1ccc(OC)c(NC(=O)c2cc3cc(C)ccc3n2C)c1 | 9% | -4%
O=C(c1cccc(F)c1)N1CCC(c2c[nH]c3ccccc23)(c2c[nH]c3ccccc23)CC1 | -25% | -12%
COc1ccccc1NC(=O)c1cc(=O)c2ccccc2o1 | 171%[activator] | 4%
CCCCNC(=O)CSC1=Nc2ccccc2C2=NC(CCC(=O)NCc3ccccc3OC)C(=O)N12 (stereo unspecified) | -15% | -6%
CCOc1ccccc1NS(=O)(=O)c1ccc(-c2coc(C)n2)cc1 | ? | ?
COc1ccc(-c2ccc(NS(=O)(=O)c3ccccc3Cl)cc2)nn1 | 7% | 181%[activator]
CCc1nn(CC(=O)NCCCN2CCN(C)CC2)c(=O)c2cc3occc3n12 | -9% | -8%
COc1cc(C2c3c(-c4c(C)cc(C)cc4O)n[nH]c3C(=O)N2CCO)cc(OC)c1OC (stereo unspecified) | -9% | -14%
O=C(CC(c1ccc(OCc2ccccc2)cc1)S(=O)(=O)c1ccccc1)c1ccc(F)cc1 (stereo unspecified) | 7% | 1%
COc1ccc(-c2noc(-c3cc(C4CC4)[nH]n3)n2)cc1 | 262%[activator] | 39%[activator]
N#C/C(=C/c1cccn1-c1cccc(C(F)(F)F)c1)c1ccc([N+](=O)[O-])cc1 | 1% | 0%
Cc1ccc(-c2nn3c(N4CCCCC4)cc(C)nc3c2C)cc1 | 9% | -1%
CC(=O)N1c2ccc(S(=O)(=O)Nc3ccc(Cl)cc3C)cc2CC1C (stereo unspecified) | ? | 39%[activator]
CC#CC[N+](C)(CC#CC)CC(=O)C(C)(C)C | -4% | 0%
N#Cc1c(N)n[nH]c1CCCNC(=O)c1cn(-c2ccccc2)nc1-c1cccnc1 | 0% | 47%[activator]
Cc1cc(C)c(NC(=O)Cn2nnc3sc4c(c3c2=O)CCC(C(C)(C)C)C4)c(C)c1 (stereo unspecified) | -15% | -13%
Cc1ccc(C)c(NC(=O)C2CCCCC2)c1 | -2% | -5%[1.06 µM]
CC(=O)Nc1ccc(NC(=O)c2cc3sccc3n2Cc2ccc(F)cc2)cc1 | 12% | 3%
COc1ccc(NC(=O)CSc2nnc3scc(-c4ccc(Cl)cc4)n23)cc1 | 7%&13% | 32%&32%[activator]
Cn1cnc2c1c(=O)n(CC(=O)N1CC(C(=O)N3CCCCC3)Oc3ccccc31)c(=O)n2C (stereo unspecified) | -3% | 51%[activator]
Cc1cccc(NC(=O)Cn2c(=O)n(-c3ccccc3Cl)c(=O)c3c(C)c(C(=O)N(C)C)sc32)c1 | -8% | 5%
Cc1c(CC(=O)N2CCN(C(c3ccccc3)c3ccccc3)CC2)c(=O)oc2cc(O)ccc12 | 5% | 0%
COc1ccc(C(=O)Nc2oc3c(C)cccc3c(=O)c2-c2ccccc2)cc1 | 21% | 39%[activator]
NS(=O)(=O)c1ccc(NC(c2ccccc2)C2CC2)c([N+](=O)[O-])c1 (stereo unspecified) | 23% | -1%

Three compounds from above, sorted by heavy-atom count, falling.
SMILES | 2A firefly | 2A Renilla
Cc1c(CC(=O)N2CCN(C(c3ccccc3)c3ccccc3)CC2)c(=O)oc2cc(O)ccc12 | 5% | 0%
CC(=O)N1c2ccc(S(=O)(=O)Nc3ccc(Cl)cc3C)cc2CC1C (stereo unspecified) | ? | 39%[activator]
COc1ccc(OC)c(NC(=O)c2cc3cc(C)ccc3n2C)c1 | 9% | -4%

The listing continues.
SMILES | 2A firefly | 2A Renilla
CCN1CCN(c2nc3c(c(=O)[nH]c(=O)n3C)n2CCSc2nc3ccccc3o2)CC1 | -9% | -17%
CCC(OC(=O)c1cc(C)nc2ccccc12)C(=O)Nc1cc(C)on1 (stereo unspecified) | 0% | 22%
O=C(/C=C/c1ccco1)OCC(=O)C12CC3CC(CC(C3)C1)C2 | 66%[activator] | 0%
Cc1cccc(C(=O)NCC(c2cccs2)N2CCCC2)n1 (stereo unspecified) | 0% | -3%
CCOC(=O)c1ccoc1CN1CCCC(O)C1 (stereo unspecified) | 3% | 1%
COc1cccc(CNC(=O)c2cc(S(=O)(=O)N3CCCCC3)c[nH]2)c1 | -20% | 36%[activator]
O=C(O)CCCc1c(-c2ccccn2)[nH]c2ccccc12 | -9% | -8%
COc1ccc(CCC(=O)NCc2ccc3c(c2)CCN3C(=O)c2ccc(Cl)cc2)cc1 | 3% | -15%
CCN1CCN(C(=O)c2ccc3c(c2)N(Cc2ccccc2F)C(=O)c2ccccc2S3(=O)=O)CC1 | -10% | 54%[activator]
Cc1cccc(NC(=O)CN2CCN(C(=O)CCNS(=O)(=O)c3ccc(F)cc3)CC2)c1C | -10% | -9%
CCS(=O)(=O)c1nc(S(=O)(=O)c2ccc(C)cc2)c(NC(C)C)s1 | -14% | 76%[activator]
CCOc1ccc2nc(Cl)c(C3CC(c4ccccc4)=NN3C(=O)CCC(=O)O)cc2c1 (stereo unspecified) | 60%[activator] | -4%
C=Cc1ccc(Cn2c(SCC(=O)N3CCN(c4ccc(F)cc4)CC3)nc3ccccc32)cc1 | 5% | 4%
CCOC(=O)c1c(C)[nH]c(C)c1S(=O)(=O)N1CCCC(C(=O)Nc2ccc(F)cc2F)C1 (stereo unspecified) | -10% | -2%
O=C(Nc1ncc(Cc2ccccc2Cl)s1)c1ccc2c(c1)CC(c1ccccc1)OC2=O (stereo unspecified) | -3% | -10%
C=CCNC(=O)COc1ncnc2ccc(Br)cc12 | -1% | -11%
CCCCCC1CCC(c2ccc(-c3ccc(CC)cn3)cc2F)CC1 (stereo unspecified) | -17% | -2%[1.06 µM]
Cc1ccc(S(C)(=O)=O)cc1C(=O)NC1CCCCCC1 | 11% | 10%
CCCOC(=O)COc1ccc2c(=O)c(Oc3ccc(CC)cc3)coc2c1 | -8% | 3%
C/C(=N/NC(=O)c1ccccc1)c1ccc(C)cc1 | 199%[activator] | 20%
CCN(C(=O)c1coc(=O)c2ccccc12)c1ccccc1C | -14% | -5%
COc1ccc(-c2nnc(Cn3nc(C)c(S(=O)(=O)N4CCc5ccccc54)c3C)o2)cc1 | -3% | -14%
CCOc1ccc(NC(=O)c2c(NC(=O)c3ccncc3)sc3c2CCC(C(C)(C)C)C3)cc1 (stereo unspecified) | -9% | 2%
O=C(Cn1c2ncccc2c(=O)n1-c1ccccc1)NCc1ccccc1 | -5% | 5%
N#Cc1c(SCC(=O)NCc2ccccc2)nc2c(c1C(F)(F)F)CCCC2 | -16% | -2%

The closing three records of the section above come first, to join the parts:
SMILES | 2A firefly | 2A Renilla
CCOc1ccc(NC(=O)c2c(NC(=O)c3ccncc3)sc3c2CCC(C(C)(C)C)C3)cc1 (stereo unspecified) | -9% | 2%
O=C(Cn1c2ncccc2c(=O)n1-c1ccccc1)NCc1ccccc1 | -5% | 5%
N#Cc1c(SCC(=O)NCc2ccccc2)nc2c(c1C(F)(F)F)CCCC2 | -16% | -2%
COc1ccc(CCNC(=O)c2ccc3c(c2)nc2n3CCOC2)cc1OC | -17% | -7%
Cc1sc(NC(=O)c2cccc(C#N)c2)c(C#N)c1C | 0% | 3%
Cc1ccccc1C(=O)NC1CCCC(C)C1 (stereo unspecified) | 27% | 9%
Cc1nonc1CN1CCN(C(C(=O)O)c2c[nH]c3cc(F)ccc23)CC1 (stereo unspecified) | 0% | -3%
Cc1ccc2oc(C(=O)Nc3nonc3-c3ccc4c(c3)CCCC4)cc(=O)c2c1 | 1% | 1%
N#C/C(=C/c1ccc(I)o1)c1nc2ccccc2[nH]1 | 34%[activator] | 7%
COc1cccc(NC(=O)CN(C)CC(=O)Nc2ccc(C)cc2)c1 | 16% | -9%
Cc1ccc(/C(O)=C2\C(=O)C(=O)N(CCCO)C2c2ccc(Br)cc2)cc1 (stereo unspecified) | 5% | -8%
COc1ccc(OC)c(C2C(C#N)=C(N)Oc3cc(O)ccc32)c1 (stereo unspecified) | 20% | 24%
CC(Oc1ccc(Cl)cc1Cl)C(=O)NCCc1cccs1 (stereo unspecified) | 16% | 4%
COc1ccccc1OCC(=O)N1CCN(S(=O)(=O)c2ccc3c(c2)OCCO3)CC1 | 45%[activator] | 19%
Cc1ccc(C)c(N(C)C(=O)c2cn(C)c(=O)c3ccccc23)c1 | 4% | 88%[activator]
CCCN(Cc1ccc(OCC)c(OCC)c1)C(=O)c1cc2ccccc2oc1=O | -7% | 94%[activator]
C/C=C/C=C/C(=O)N1C[C@H](C)N(C)C[C@H]1C | 3% | -4%
COc1ccc(-c2nc(CS(=O)CC(=O)NCC(OC)OC)c(C)o2)cc1 (stereo unspecified) | 6% | 15%
CCc1ccc(NC(=O)Cn2ccn(-c3cccc(Cl)c3)c(=O)c2=O)cc1 | -19% | -12%
Cc1nn(CC(=O)NC2CCC(C)CC2)c(=O)c2c1sc1ccccc12 (stereo unspecified) | -6% | -10%
COc1ccccc1NC(=O)Nc1nnc(CC(=O)Nc2ccccc2C)s1 | -6% | -8%
Cc1cccc(C(C)C)c1NC(=O)c1ccc2c(c1)CCCN2S(C)(=O)=O | -7% | 5%
CNS(=O)(=O)Cc1cccc(CNC(=O)c2cccc(F)c2)c1 | 12% | 3%
CC(=O)c1cc(Cl)cc(Cl)c1OCC(=O)N1CCN(C(=O)c2ccco2)CC1 | -10% | -13%

Screening data (PubChem)

A portion of the library; rates above refer to the full screens.
